Compound activity deposited in PubChem BioAssay by National Center for Advancing Translational Sciences (NCATS).
Cruzain Triton: blocks cruzain activity in presence of Triton detergent. purified cruzain, Z-FR-AMC fluorescence, 0.01% Triton. Potency, µM, without a hit: max response, negative = inhibition, actives largely listed as inhibitors. 200,000 tested, 0.43% active. AID 1478; active means well fitted curve in the direction sought with a large enough effect; inconclusive means small, poorly fitted or top-dose-only effect, or another doubt; inactive means no such curve, though single readings can be large; an effect the other way counts as inactive or inconclusive;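 further: plate controls were neutral wells for no effect and buffer without enzyme for full effect; nearly all actives have a fitted effect of over 40% in size; top concentration of the series not given in the record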
Target sequence (P25779 123-467 limits assumed): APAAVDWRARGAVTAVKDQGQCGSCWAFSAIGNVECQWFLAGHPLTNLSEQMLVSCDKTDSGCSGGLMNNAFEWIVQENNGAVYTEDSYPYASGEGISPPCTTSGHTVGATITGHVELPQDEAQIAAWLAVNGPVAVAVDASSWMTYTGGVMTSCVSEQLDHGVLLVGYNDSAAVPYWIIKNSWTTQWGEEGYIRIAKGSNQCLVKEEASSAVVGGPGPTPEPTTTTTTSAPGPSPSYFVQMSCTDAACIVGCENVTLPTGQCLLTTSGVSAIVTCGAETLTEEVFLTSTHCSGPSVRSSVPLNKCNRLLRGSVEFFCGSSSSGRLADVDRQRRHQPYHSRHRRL
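Read-out: AMC fluorescence (360 nm excitation, 450 nm emission), four reads over 2 min, first-to-third difference used. Conditions: cruzain 1.5 nM, Z-FR-AMC 2 uM, pH 5.5 acetate, 5 mM DTT, 0.01% Triton X-100.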
SARS PLpro yeast: inhibitors of SARS-CoV papain-like protease in yeast; 330,000 tested, 0.19% active; S. cerevisiae expressing SARS-CoV PLpro, growth rescue; control for the full effect not named in the record; Potency, µM (highest dose often 32.9 µM), for inactives: at the highest dose activity, positive = growth rescue; further: 0% is about no effect; nearly all actives have a fitted effect of over 55% in size; growth read by luminescence after 48 h
StopGo reporter: FMDV 2A StopGo reporter, luciferase signal; AID 1159524; Potency, µM (titrated, usually from 57.9 µM), without a hit: at the highest dose signal change, negative = less light; human cells with a luciferase reporter of 2A StopGo recoding; control for the full effect not named in the record; 410,000 tested, 1.2% active; active = well fitted falling curve with a large enough effect; inconclusive = small, poorly fitted or top-dose-only effect; inactive = no such curve, though single readings can be large or run the other way; tested in HEK293T cells; further: on the % scale 0 is the no-effect control and ±100 the full control effect; nearly all actives have a fitted effect of over 45% in size; luciferase light after 4 h
Marburg entry inh: Marburg virus entry inhibition | Marburg virus pseudotyped entry inhibition, cell reporter; control for the full effect not named in the record; about a third of the inactives were read at about 46 µM | Potency, µM (titrated, usually from 37.8 µM), for inactives: top-dose activity change, negative = inhibition, actives largely listed as inhibitors | 300,000 tested, 1.8% active | AID 540276; active = well fitted inhibition curve with a large enough effect; inconclusive = small, poorly fitted or top-dose-only effect, or effect the other way; inactive = flat fitted curve, though single readings scatter; tested in HEK293 cells; about a fifth of its hits are not listed in these tables; further: on the % scale 0 is the no-effect control and ±100 the full control effect; luciferase read-out
Lassa entry inh: Lassa virus entry inhibition | Lassa virus pseudotype entry inhibition, cell reporter; control for the full effect not named in the record | Potency, µM (titrated, usually from 37.9 µM), without a hit: top-dose activity change, negative = inhibition, most hits filed as inhibitors | 300,000 tested, 1.2% active; active means well fitted inhibition curve with a large enough effect; inconclusive means small, poorly fitted or top-dose-only effect, or effect the other way; inactive means flat fitted curve, though single readings scatter; tested in HEK293 cells; further: on the % scale 0 is the no-effect control and ±100 the full control effect; nearly all actives have a fitted effect of over 50% in size; luciferase read-out
Cruzain noTriton: blocks cruzain activity in detergent-free assay. AID 1476. Potency, µM, without a hit: max response, negative = inhibition, usual class: inhibitors. P25779. 200,000 tested, 2.3% active. purified cruzain, Z-FR-AMC fluorescence, no detergent; active means well fitted curve in the direction sought with a large enough effect; inconclusive means small, poorly fitted or top-dose-only effect, or another doubt; inactive means no such curve, though single readings can be large; an effect the other way counts as inactive or inconclusive;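 further: plate controls were enzyme without inhibitor for no effect and buffer without enzyme for full effect; nearly all actives have a fitted effect of over 40% in size; top concentration of the series not given in the record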
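Detergent-free condition (0.00005% Triton X-100) in acetate buffer pH 5.5 with DTT. 1.5 nM enzyme and compound were pre-mixed 15 min, then 2 uM Z-FR-AMC substrate added; reaction progress from fluorescence change between first and third reads (60 s).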
RE007 growth inh: less growth of the S. pombe RE007 Vpr strain | Potency, µM (highest dose often 92.2 µM), for the others: at the top dose activity change, negative = less growth | S. pombe RE007 Vpr strain, BacTiter-Glo ATP luminescence, 24 h; control for the full effect not named in the record | AID 651644 | 360,000 tested, 0.21% active; active = well fitted falling curve with a large enough effect; inconclusive = small, poorly fitted or top-dose-only effect; inactive = no such curve, though single readings can be large or run the other way;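 further: on the % scale 0 is the no-effect control and ±100 the full control effect; nearly all actives have a fitted effect of over 50% in size; the assay follows cell death caused by Vpr and the record does not say whether a fall means rescue or toxicity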
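Fission yeast strain RE007, carrying one chromosomally integrated HIV-1 vpr copy, was seeded at OD 0.01 in PMG+AL medium with 23 nL pinned compound. After 24 h at 30 °C and 99% humidity, viability was read by BacTiter-Glo luminescence.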
NS1 function inh: inhibitors of influenza NS1 protein function; S. cerevisiae slowed by influenza A NS1, growth recovery by OD600; Potency, µM (top dose mostly 46.1 µM), without a hit: at the top dose activity, positive = more growth; 270,000 tested, 0.4% active; AID 2326; further: actives are rising curves; nearly all actives have a fitted effect of over 50% in size
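Growth recovery, yeast-based: influenza A NS1 expressed in S. cerevisiae causes slow growth, and suppressors are detected by OD600. The parent strain without NS1 is used as positive control.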
* = called active by the depositor; u = inconclusive; x = no result given; & = joins results of further samples; [ ] = dose if it differs, or a comment. Unless noted, the call rests on the fitted dose curve; in most records, active means well fitted rising curve with a large enough effect; inconclusive means small, poorly fitted or top-dose-only effect; inactive means no such curve, though single readings can be large or run the other way. Potency means the concentration at half of the fitted maximal effect. This is a random part of the collection; any-hit rate near 4.6%.

no.	SMILES	Cruzain Triton	SARS PLpro yeast	StopGo reporter	Marburg entry inh	Lassa entry inh	Cruzain noTriton	RE007 growth inh	NS1 function inh
1	O=C(Cn1ncc2c([nH]c3ccccc32)c1=O)N1CCN(c2ccc(F)cc2)CC1	x	5%	3%	4%[46.1 µM]	25%[46.1 µM]	x	4%	4%
2	CCN(c1ccc(OC)cc1)S(=O)(=O)c1nnc(NC(=O)COc2ccccc2)s1	x	u	-23%	x	x	x	3%	7%
3	CCn1nc(C)c([N+](=O)[O-])c1C(=O)NNC(=O)c1ccccc1Cl	x	0%	-3%	1%[46.1 µM]	-3%[46.1 µM]	x	1%	1%
4	CC(=O)N1CCc2cc(Br)cc(S(=O)(=O)CCC(=O)N3CCN(c4ccc(F)cc4)CC3)c21	0.1%	x	11%	u	3%[46.1 µM]	u	x	x
5	COc1ccc(C(=O)NC(=S)NCc2ccco2)cc1	x	13%	53%[activator]	12%	u	x	-21%	2%
6	CCOP(=O)(C#Cc1ccccc1)C(O)c1ccc(Br)cc1 (stereo not given)	x	-4%	20%	x	x	x	7%	2%
7	Cc1cc(OCC(=O)Nc2sc3c(c2C#N)CC(C)(C)NC3(C)C)c(C(C)C)cc1Cl	x	6%	u	x	x	x	-13%	5%
8	Cc1nn2c(=O)cc(COC(=O)c3cccs3)nc2s1	-1.8%	x	55%[activator]	x	u	8%	x	x
9	O=C(Nc1ccon1)c1cnc2sccn2c1=O	-7.2%	1%	21%	17%	10%	2%	16%	-4%
10	COc1ccc2c(C)c(C(=O)NCC(C)O)oc2c1OC (stereo not given)	-6.3%	-4%	-10%	21%	-1%	-2%	-7%	7%
11	Cc1noc(C)c1S(=O)(=O)N1CCC(Cc2ccccc2)CC1	-5.4%	-9%	u	-17%	-24%	2%	-1%	-61%
12	O=C(OCCN1CCN(c2ncc(C(F)(F)F)cc2Cl)CC1)c1ccc(F)cc1	4.2%	-6%	-13%	-5%	-1%	7%	-10%	-12%
13	O=C(CC(NCCc1ccccc1)C(=O)O)Nc1ccc(O)cc1 (stereo not given)	2.7%	9%	x	-5%	x	2%	x	4%
14	NC(=O)c1cc([N+](=O)[O-])cc([N+](=O)[O-])c1	-2.6%	x	-21%&-6%	x	x	3%	-1%	x
15	COc1ccc(/C=N\NC(=O)CCN2CCN(c3ccccc3)CC2)cc1OC	2.5%	-8%	-5%	u	-22%	-4%	6%	3%
16	C=CCn1c(SCC(=O)NC2CCS(=O)(=O)C2)nnc1-c1ccncc1 (stereo not given)	x	7%	-5%	-6%[46.1 µM]	11%	x	-16%	-2%
17	COc1cccc(NC(=O)CN(c2cccc(OC)c2)S(C)(=O)=O)c1	x	0%	-3%	-11%[46.1 µM]	7%	x	-19%	1%
18	COC(=O)c1cccc(C(=O)N2CCCC(CCC(=O)N(C)CCc3ccccn3)C2)c1 (stereo not given)	x	7%	-8%	12%[46.1 µM]	15%[46.1 µM]	x	0%	8%
19	CCOP(=O)(OCC)C(NC(=O)c1ccccc1C)C(Cl)(Cl)Cl (stereo not given)	6.3%	-5%	-9%	u	-3%	4%	2%	-1%
20	CC(C)n1c(=O)c2oc3ccccc3c2n(CC(=O)Nc2ccccc2Cl)c1=O	-1.8%	x	46%[activator]	x	28%[46.1 µM]	0%	x	x
21	O=C(CCc1ccccc1)NNC(=O)c1ccc(F)cc1	x	-1%	2%	13%[46.1 µM]	-4%[46.1 µM]	x	0%	-1%
22	O=C(Nc1nc(-c2cccs2)cs1)c1cc2ccccc2oc1=O	0.4%	2%	x	0%	x	-1%	x	9%
23	COc1cccc(N(CC(=O)NCCSc2ccccc2)S(C)(=O)=O)c1	1.0%	-5%	-1%	-24%	0%	7%	-3%	-30%
24	CCCCOc1ccc(C(=O)NCC(=O)OC2CCOC2=O)cc1 (stereo not given)	20µM*	x	-8%	-10%[46.1 µM]	u	u	2%	-5%
25	O=C1C2Sc3[nH]c(=O)sc3C(c3cc([N+](=O)[O-])ccc3O)C2C(=O)N1c1ccccc1 (stereo not given)	x	4%	-9%	7%[46.1 µM]	3%	x	4%	2%
26	CCOC(=O)c1c(CN2CCOCC2)n(C)c2cc(Br)c(O)c(CN(C)C)c12	17%&4.8%	0%&4%	-14%&-27%	u	-8%	-6%&-1%	-6%&3%	u
27	O=S(=O)(Nc1ccccc1)c1ccc(NS(=O)(=O)c2cccs2)cc1	x	3%	24%	-22%[46.1 µM]	-5%[46.1 µM]	x	5%	-6%
28	Fc1ccccc1C1c2[nH]c3ccccc3c2CCN1Cc1ccoc1 (stereo not given)	x	0%	-25%	u	u	x	-2%	-1%
29	CCOc1ccc(NS(=O)(=O)c2ccc(C(=O)N(C)Cc3cccc(OC)c3OC)cc2)cc1	x	-6%	-20%	u	u	x	-12%	-18%
30	COc1cc(/C=N/NC(=O)c2ccc3ccccc3c2)ccc1Oc1ccc([N+](=O)[O-])cn1	-1.8%	9%	u	-11%[46.1 µM]	-27%	u	7%	23%
31	COc1ccc(CC(=O)Oc2ccc(C)cc2Br)cc1S(=O)(=O)N1CCOCC1	x	-2%	-4%	1%	28%	x	-2%	x
32	CN(CCOc1ccc(Cl)cc1)C(=O)CNS(=O)(=O)c1ccc(N(C)C)c([N+](=O)[O-])c1	x	-4%	47%[activator]	-1%	-8%	x	8%	x
33	Cc1cc(C)c(NC(=O)c2cc(C(=O)O)ccc2C(=O)O)c([N+](=O)[O-])c1	x	-4%	7%	-1%[46.1 µM]	21%	x	-6%	x
34	O=C(CCCN1C(=O)C(c2ccccc2)Oc2cccnc21)NCc1ccc(F)cc1 (stereo not given)	x	-3%	-9%	x	x	x	3%	-6%
35	CC1SCCN1S(=O)(=O)c1ccc2ccccc2c1 (stereo not given)	-6.1%	1%	-8%	-1%	-12%	-5%	-3%	5%
36	Brc1ccc2c(c1)C(c1cccnc1)=NNC(c1cccs1)=N2	-4.7%	-38%	-2%	-51%	-24%	17%	8%	-22%
37	CCCONC(=O)Nc1ccccc1[N+](=O)[O-]	-2.6%	-7%	1%	6%	21%	1%	-16%	-13%
38	O=C(CS(=O)(=O)c1cn(Cc2ccc(F)cc2)c2ccccc12)N1CCCCC1	-0.6%	-9%	4%	-12%	-1%	0%	-9%	-2%
39	Cc1cc2c(N=NC(=O)C3CC3c3ccccc3)c(O)[nH]c2cc1Br (stereo not given)	-3.8%	17%	u	4%	u	u	25%	8%
40	CCc1ccccc1NC(=O)CN1CCN(C(=O)CCC(=O)N2CCC(c3ccccc3)=N2)CC1	x	-7%	-28%	21%	10%	x	21%	x
41	Cc1noc(C)c1C(=O)Nc1nnc(-c2ccccc2)s1	-0.3%	-12%	9%	-11%	1%	-1%	-9%	-116%
42	Cc1ccc(NC(=O)Cn2ccn(-c3ccc(F)c(F)c3)c(=O)c2=O)cc1C	-1.2%	x	-5%	x	1%[46.1 µM]	-6%	x	x
43	O=C(c1ccc(S(=O)(=O)N2CCOCC2)cc1)N1CCN(c2ccccc2F)CC1	4.1%	-5%	-10%	-1%	7%	u	-8%	-10%
44	O=C(Nc1ccnn1C1CCN(C(=O)c2cnsn2)CC1)c1cccc(F)c1	x	-2%	-4%	7%	u	x	u	3%
45	CCN(CC)S(=O)(=O)c1ccc(C(=O)NCCN(C)C)cc1	x	0%	2%	u	24%	x	-2%	3%
46	Cn1c(Cc2csc(N)n2)nnc1SCC(=O)NC1CCCCC1	-4.8%	-5%	17%	8%[46.1 µM]	-1%	-11%	24%	-22%
47	CC(C)c1ccc(NC(=O)CSc2nc3ccccc3nc2N2CCCC2)cc1	x	u	-15%	x	x	x	-4%	u
48	CCOC(=O)c1ccc(NC(=O)COc2ccc(CNCCO)cc2OCC)cc1	x	0%	-8%	10µM*	x	x	0%	0%
49	COc1ccccc1CCC(=O)NNC(=O)c1ccc(Br)cc1	x	6%	34%[activator]	u	8%[46.1 µM]	x	-14%	1%
50	CCN1C(=O)c2cccc3c(S(=O)(=O)NC(Cc4c[nH]c5ccccc45)C(=O)O)ccc1c23 (stereo not given)	-0.5%	u	-10%	-2%&12%	19%	8%	24%	2%
51	COc1cccc(/C=C2\SC(=O)NC2=O)c1OCc1ccc(C(=O)O)cc1	x	-1%	4%	24%[46.1 µM]	u	x	-7%	13%
52	O=C1CN(C(=O)COC(=O)CCNS(=O)(=O)c2ccc(Cl)cc2)c2ccccc2N1	x	0%	-20%	3%[46.1 µM]	2%	x	2%	-4%
53	O=C(O)C(c1ccccc1)N1C(=O)c2cccc3cccc(c23)C1=O (stereo not given)	x	0%	9%	x	x	x	6%	26%
54	COc1cccc(C(C)NC(=S)NCc2ccc(F)cc2)c1 (stereo not given)	x	15%	-7%	x	x	x	-6%	-22%
55	Cn1c(=O)[nH]c(=O)c2c1nc(SCCO)n2Cc1ccccc1Cl	x	-4%	-6%	-7%	-21%	x	2%	4%
56	COc1ccc(-c2cc(C(=O)Nc3nc4ccccc4s3)c3ccccc3n2)cc1OC	-7.3%	-3%	0%	u	u	-4%	18%	22µM*

Further results follow.
no.	SMILES	Cruzain Triton	SARS PLpro yeast	StopGo reporter	Marburg entry inh	Lassa entry inh	Cruzain noTriton	RE007 growth inh	NS1 function inh
57	O=C(CSCc1ccc(F)cc1)Nc1ccc(F)cc1	-1.2%	19%	60%[activator]	-1%	2%	-6%	-11%	-9%
58	O=C(CCc1nnc(CCCc2ccccc2)o1)NCC(F)(F)F	x	0%	38%[activator]	x	x	x	8%	-2%
59	CC(=O)N1CCc2cc(S(=O)(=O)NC(Cc3ccccc3)C(=O)NCc3ccccc3)ccc21 (stereo not given)	-4.1%	x	1%	-23%[46.1 µM]	-13%[46.1 µM]	-3%	x	x
60	CCN(C(=O)c1cc2cc3ccc(C)cc3nc2o1)c1ccc(OC)cc1	-12%	-14%	20%	-7%	u	-3%	-20%	-42%
